Screening results as filed in PubChem BioAssay.
ClpP mod = qHTS Assay for Activators of ClpP. ATP-dependent Clp protease proteolytic subunit (Bacillus subtilis (strain 168)), P80244. Potency, µM (series often up to 57.5 µM), for inactives: top-dose activity change, negative = active. purified B. subtilis ClpP, FRET peptide cleavage, 20 min. actives 1.9% (n = 340,000); active = well fitted falling curve with a large enough effect; inconclusive = small, poorly fitted or top-dose-only effect; inactive = no such curve, though single readings can be large or run the other way; also: potency is read from the fitted curve at half-maximal effect; the source files actives as falling curves though it sought activators and does not explain the sign; nearly all actives have a fitted effect of over 65% in size; many hits overshoot -100%
Target sequence (P80244 whole entry, looked up): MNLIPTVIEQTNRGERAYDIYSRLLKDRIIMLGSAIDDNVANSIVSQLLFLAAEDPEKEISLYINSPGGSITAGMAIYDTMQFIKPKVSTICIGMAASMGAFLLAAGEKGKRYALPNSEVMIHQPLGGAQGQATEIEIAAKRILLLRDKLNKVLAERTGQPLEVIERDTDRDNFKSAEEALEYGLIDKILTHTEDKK
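Purified B. subtilis ClpP, 10 microg/mL final in Tris/HCl pH8 with KCl, BSA, glycerol and Tween-20, cleaved an Abz/nitrotyrosine-quenched decapeptide. Fluorescence (ex 320, em 430) was read at 0 and 20 min at room temperature. Delta was normalized to 5.8 microM ADEP and DMSO/no-enzyme controls.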
TRPV1 potentiator = HTS Assay for Compounds that Act as Potentiators of the Vanilloid Receptor 1 | Transient receptor potential cation channel subfamily V member 1 (Homo sapiens), Q8NER1 | potentiation, % at 8.33 µM | actives 0.02% (n = 320,000) | TRPV1-expressing cells, Fluo-8 calcium influx, capsaicin EC20 potentiation; host cell line not named in the record; control for the full effect not named in the record; active means potentiation above 80%; inconclusive means 30% to 80%; inactive means below 30%; also: 0% is about no effect
Target sequence (Q8NER1 whole entry, looked up): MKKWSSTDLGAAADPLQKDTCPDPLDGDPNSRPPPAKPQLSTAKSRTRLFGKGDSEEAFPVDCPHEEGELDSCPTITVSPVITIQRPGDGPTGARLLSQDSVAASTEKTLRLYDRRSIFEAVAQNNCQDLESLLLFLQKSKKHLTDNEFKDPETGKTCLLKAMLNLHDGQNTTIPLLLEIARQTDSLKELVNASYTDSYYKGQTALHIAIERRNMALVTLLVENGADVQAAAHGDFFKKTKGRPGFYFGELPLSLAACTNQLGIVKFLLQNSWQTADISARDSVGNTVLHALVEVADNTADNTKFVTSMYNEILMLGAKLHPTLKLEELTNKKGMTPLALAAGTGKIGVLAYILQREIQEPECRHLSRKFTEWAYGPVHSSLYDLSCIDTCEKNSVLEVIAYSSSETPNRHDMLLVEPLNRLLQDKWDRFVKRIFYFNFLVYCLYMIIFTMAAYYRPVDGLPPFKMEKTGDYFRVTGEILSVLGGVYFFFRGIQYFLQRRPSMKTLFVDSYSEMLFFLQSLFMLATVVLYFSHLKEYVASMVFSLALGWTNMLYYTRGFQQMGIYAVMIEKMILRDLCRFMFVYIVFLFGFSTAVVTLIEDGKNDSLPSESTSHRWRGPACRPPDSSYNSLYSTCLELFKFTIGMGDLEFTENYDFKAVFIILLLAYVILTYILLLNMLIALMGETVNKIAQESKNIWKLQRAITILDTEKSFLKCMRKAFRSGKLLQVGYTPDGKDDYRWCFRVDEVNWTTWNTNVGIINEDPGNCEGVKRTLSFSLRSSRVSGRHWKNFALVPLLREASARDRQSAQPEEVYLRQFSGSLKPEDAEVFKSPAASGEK
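Cells expressing TRPV1 were dye-loaded with Fluo-8 and read kinetically: 10 s baseline, 3 min after compound (agonist portion), then 2 min after EC20 capsaicin (allosteric enhancer portion). Calcium-bound dye fluorescence at 480/520 nm.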
gsp antagonist = qHTS for Antagonists of gsp, the Etiologic Mutation Responsible for Fibrous Dysplasia/McCune-Albright Syndrome: qHTS; actives 0.4% (n = 340,000); gsp-mutant cells, cAMP HTRF, 30 min; control for the full effect not named in the record; Potency, µM (top dose mostly 76.9 µM), inactives show at the top dose activity change, negative = inhibition, most hits filed as inhibitors; active = falling curve of any shape with a large fitted effect; inconclusive = falling curve, mostly with a smaller effect; inactive = flat or rising curve; cell line not stated here;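 also: intracellular cAMP measured with PDE inhibitor Ro 20-1724 present during compound exposure; potency is read from the fitted curve at half-maximal effect; % is scaled to controls: 0 for no effect and ±100 for the full control effect; nearly all actives have a fitted effect of over 65% in size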
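HTRF cAMP measurement after 30 min RT detection following 30 min, 37C compound treatment alongside […] (added as 300 uM solution) in G418-selected cells seeded at 2000/well and grown 16–24 h.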
Sfp inh = qHTS Assay for Inhibitors of Bacillus subtilis Sfp phosphopantetheinyl transferase (PPTase). actives 3.5% (n = 310,000). Potency, µM, for inactives: max response, negative = inhibition, usual class: inhibitors. Biochemical Sfp PPTase activity, qHTS. AID 1490, 2009; active = well fitted inhibition curve with a large enough effect; inconclusive = small, poorly fitted or top-dose-only effect, or another doubt; inactive = no such curve, though single readings can be large or run the other way;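 also: the enzyme is Sfp with the accession as filed and its product quenches rhodamine fluorescence; potency is read from the fitted curve at half-maximal effect; 0% = enzyme reaction without inhibitor and -100% = no enzyme wells; top concentration of the series not given in the record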
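Fluorescence-quenching assay with 15 nM Sfp, 5 uM rhodamine-CoA and 12.5 uM BHQ-2-labelled ybbR peptide in pH 7.6 Hepes/MgCl2 buffer. Enzyme was pre-incubated with compound for 15 min at room temperature. Rate was taken from the 30-min fluorescence change (525/598 nm).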
Menin-MLL FL inh = qHTS Assay for Inhibitors Targeting the Menin-MLL Interaction in MLL Related Leukemias: Competition With Fluorescein Labeled MLL-derived Peptide | Fluorescence polarization, fluorescein-MLL peptide displacement from menin | FP activity change, % at 61.4 µM | 290,000 tested, under 10 active; inconclusive = falling polarisation curve, or a change in total fluorescence; inactive = total fluorescence flat and polarisation flat or rising; no compound was filed as active; the % refers to the polarisation; negative = inhibition;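 also: % of control where 0% means no effect; inhibitors lower the polarisation; unlabelled MLL peptide was the positive control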
CtBP-E1A inh = qHTS Assay for Inhibitors of the CtBP/E1A Interaction | CtBP / adenovirus E1A interaction (AlphaScreen) | AlphaScreen GST-E1A/His-CtBP binding, 1536-well; stronger effect = lower value; control for the full effect not named in the record | activity change, % (no concentration beside the values) | actives 0.49% (n = 340,000); in the data active means activity change below about -65%; inconclusive means about -30% to -65%; inactive means above about -30%; also: % is scaled to controls: 0 for no effect and ±100 for the full control effect; compound concentration not given in the record
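In 5 uL wells, 23 nL compound meets equimolar GST-E1A and His-CtBP (5X stock 125 nM each) for 2 h, 37 °C. Beads (5X, 50 ug/mL) then 1 h, 37 °C, dark.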
gsp agonist = qHTS for Agonist of gsp, the Etiologic Mutation Responsible for Fibrous Dysplasia/McCune-Albright Syndrome: qHTS; actives 0.13% (n = 340,000); gsp mutant cells, cAMP HTRF, 30 min; control for the full effect not named in the record; Potency, µM (titrated, usually from 76.9 µM), without a hit: at the highest dose activation (cAMP increase), actives largely listed as activators; active = well fitted activation curve with a large enough effect; inconclusive = small, poorly fitted or top-dose-only effect, or another doubt; inactive = no such curve, though single readings can be large or run the other way; cell line not stated here;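 also: phosphodiesterase inhibitor Ro 20-1724 added with compounds to block cAMP breakdown; potency is read from the fitted curve at half-maximal effect; nearly all actives have a fitted effect of over 60% in size; about a fifth of the inactives were tested at one dose only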
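Cells in DMEM/10% FBS with G418 were pretreated with compounds in DMSO plus […] (300 uM stock) for 30 min at 37C. cAMP was measured by HTRF (cAMP-d2 plus anti-cAMP antibody-K) after 30 min at room temperature.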
Active calls of the source: *; ? = inconclusive; · = not tested or not shown; & = joins results of further samples; [ ] = dose if it differs, or a comment. Compounds were not picked by outcome; any-hit rate near 5.3%.

SMILES	ClpP mod	TRPV1 potentiator	gsp antagonist	Sfp inh	Menin-MLL FL inh	CtBP-E1A inh	gsp agonist
CCCCCc1c(O)nc(SCC(=O)NCC2CCCO2)[nH]c1=O (stereo not drawn)	1.6%	29	6%	-1%	-2.1	4	0%
O=C(CCCN=C1NS(=O)(=O)c2ccccc21)Nc1ccc(Cl)cc1	3.4%	-18	-1%	·	·	·	-17%
Cc1ccc(NS(=O)(=O)c2cc(OCC(N)=O)c(C)cc2Cl)cc1C	-1.1%	2	-11%	17%	1.1	-2	18%
COCCCNC(=O)c1ccc2c(c1)OCO2	-2.1%	1	10%	11%	-2.2	2	?
CSc1nnc(-c2cccs2)n1-c1ccccc1	?	7	10%	14%	-0.9	-12	-44%[inhibitor]
CS(=O)(=O)c1ccccc1-c1nc(-c2ccc(C(F)(F)F)cc2)no1	-2.8%	-8	0%	8%	9.4	11	-46%[inhibitor]
COc1ccc2ccc(=O)oc2c1CC=C(C)C	-14%	-16	5%	2%&8%	-1.6&1.3	7	·
CCCOc1ccc(Br)cc1/C=N/NC(=O)c1cc(OC)c(OC)c(OC)c1	-15%	10	1%	16%	2.8	-13	19%
O=C1C2C3C=CC(C3)C2C(=O)N1/N=C/c1cn(Cc2ccc(F)cc2)c2ccccc12 (stereo not drawn)	-1.0%	13	-7%	13%	0.6	-2	0%
Cc1cc(C)n(C(=O)CNC(=O)c2ccccc2Br)n1	-0.2%	-7	27%	7%	-1.3	3	6%
C/C(CS(=O)(=O)c1ccc(Cl)cc1)=N/NC(N)=S	·	18	-4%	79µM*	0.5	0	3%
Cc1sc(NC(=O)C2C3C=CC(C3)C2C(=O)O)c(C(N)=O)c1-c1ccc(C(C)C)cc1 (stereo not drawn)	-25%	3	?	0%	-0.5	8	-6%
CC1CCCCN1C(=O)/C=C/c1ccccc1[N+](=O)[O-] (stereo not drawn)	·	-14	2%	-13%	-0.3	5	-13%[15.4 µM]
COc1ccc(-n2c(SCC(=O)Nc3nccs3)nc3c(c2=O)SC(C)C3)cc1 (stereo not drawn)	1.0%	5	-13%	9%	0.6	25	-34%[inhibitor]
COc1cc(Oc2ccccc2)nc(N)n1	2.0%	·	5%	·	·	·	24%
O=[N+]([O-])c1cc(F)cc(F)c1Nc1ccc(F)cc1	·	·	-7%	·	·	-67*	22%
Cc1nn(Cc2cccc(C(=O)Nn3cc([N+](=O)[O-])cn3)c2)c(C)c1[N+](=O)[O-]	-8.1%	1	-13%	26%	11	-7	-25%
Cn1c(=O)n(C)c2cc(S(=O)(=O)NCC(=O)O)ccc21	·	5	-3%	16%	2.1	-2	7%[15.4 µM]
COc1ccc(Cl)cc1NC(=O)NN1CCN(C)CC1	0.8%	7	4%	5%	·	1	?
COc1ccc(S(=O)(=O)N2CCN(c3ccccn3)CC2)cc1OC	?	-12	1%	9%	7.7	-12	19%
CC(C)CNC(=O)C(=O)NCC1CCCN1S(=O)(=O)c1cccs1 (stereo not drawn)	-1.9%	13	-7%	·	·	-1	-9%
Cc1cc(C)cc(NCCC#N)c1	-1.4%	-2&-5	11%	-5%&4%	-7.4&4.0	2	-35%[inhibitor]
CCC/C(O)=N\S(=O)(=O)c1ccc(N=NN(C)C)cc1	-1.1%	5	6%	25%	1.7	0	1%
CC/C(C)=N\Nc1nc(-c2cc3cc(OC)ccc3oc2=O)cs1	·	-7	-15%	-3%	1.9	3	-27%[15.4 µM]
COc1ccc(NC(=O)C(CCSC)NC(N)=O)cc1Cl (stereo not drawn)	1.7%	-6	-10%	21%	1.2	3	-15%[15.4 µM]
SMILES	ClpP mod	TRPV1 potentiator	gsp antagonist	Sfp inh	Menin-MLL FL inh	CtBP-E1A inh	gsp agonist
CCOC(=O)C1CCN(S(=O)(=O)c2ccc3[nH]c(=O)ccc3c2)CC1	-7.2%	-14	0%	18%	-5.2	0	-3%
O=c1cc(-c2ccc(O)cc2)oc2c(-c3c(O)cc(O)c4c(=O)cc(-c5ccc(O)cc5)oc34)c(O)cc(O)c12	-2.5%	·	6%	·	·	-4	·
Nc1cc2[nH]c(=O)c3ccccc3c2cc1Br	-12%	·	4%	·	·	5	-27%
CCOc1ccc(C)cc1S(=O)(=O)n1ccc(C)n1	-0.6%	-11	1%	17%	0.3	9	2%
CCN(CC)C(=O)COn1c(SCC(=O)N(CC)CC)nc2ccccc2c1=O	-2.9%	1	-10%	9%	0.2	2	2%
O=C(NCc1nnnn1-c1ccc(F)c(F)c1)C(=O)c1c[nH]c2ccccc12	0.3%	2	-3%	·	·	-5	-5%
CCNC(=S)NCc1ccc2c(c1)OCO2	?	6	-11%	0%	-2.7	2	-68%[inhibitor]
CC(=O)N(Cc1ccccc1C)c1cccc(C)c1C	·	-5	7%	15%	-4.9	-1	5%[15.4 µM]
CCN(CC)CCCN(CC(=O)N(C)Cc1ccccc1)C(=O)c1ccc([N+](=O)[O-])cc1	-3.3%	13	7%	15%	-2.7	·	?
CCC(=O)Nc1nc(C)c(-c2csc(Nc3ccc(C(=O)O)cc3)n2)s1	·	22	2%	?	1.9	-13	?
O=C(C[C@@H]1C[C@H]2c3cc(NC(=O)c4cccnc4)ccc3O[C@H]2[C@H](CO)O1)NCc1ccc(Oc2ccccc2)cc1	-1.2%	·	·	·	·	-4	?
O=C(Cn1c(=O)oc2cccnc21)Nc1ccccc1Oc1ccc(Cl)cc1Cl	·	6	0%	3%	1.0	6	?
COc1ccc(CC(NC(C)=O)C(=O)N2CCN(C(=O)N(C(C)C)C(C)C)CC2)cc1 (stereo not drawn)	0.3%	8	2%	-5%	3.1	3	-46%[inhibitor]
CCSc1nc2c([nH]1)c(=O)n(C)c(=S)n2C	·	·	-3%	·	·	-3	3%
CCOC(=O)C1CCN(C(=O)CCNS(=O)(=O)c2ccc(C)cc2)CC1	0.9%	-4	-8%	·	·	·	14%
CCc1ccc(CNC(=O)c2nn(C)c3c2CS(=O)(=O)c2ccccc2-3)cc1	-5.6%	11	-12%	-7%	0.2	-5	-1%
CCOc1ccc(C(=O)N2CCCC(c3nc(-c4ccc(C)o4)no3)C2)cc1 (stereo not drawn)	·	8	-8%	4%	·	-4	1%[15.4 µM]
CC(C)(C)c1ccc(C(=O)NC(=S)NNC(=O)c2cccs2)cc1	-3.2%	-20	-1%	-26%	-2.2	-14	-20%
Cc1cc(C)c(NC(=O)CSc2nnc(SCC(=O)Nc3c(C)cc(C)cc3C)n2N)c(C)c1	3.5%	0	12%	10%	-2.5	-1	-5%
COc1ccc(NC(=O)CNS(=O)(=O)c2ccc3nc(C)sc3c2)c(OC)c1	-1.9%	2	-5%	18%	2.5	-1	-4%
CCOc1cccc(/C=N/NC(=O)c2cccnc2)c1O	-2.0%	-2	1%	20%	7.0	·	0%
COc1cccc(NC(=O)CN(C)CC(=O)Nc2ccc3c(c2)OCO3)c1	·	·	-2%	·	·	5	-32%[inhibitor]
Cn1ncc2c(Nc3cccc4ccccc34)ncnc21	-1.5%	0	11%	-25%	0.9	5	?
CC(C)N(Cc1ccccc1)C(=O)COc1ccccc1	-0.2%	2	2%	21%	1.3	·	-20%
COc1ccc(S(=O)(=O)NCc2ccc(C(=O)O)cc2)cc1	1.0%	-1	-2%	1%	-2.1	9	9%
SMILES	ClpP mod	TRPV1 potentiator	gsp antagonist	Sfp inh	Menin-MLL FL inh	CtBP-E1A inh	gsp agonist
Cc1ccc(NC(=S)N(Cc2ccco2)C2CCN(C(C)C)CC2)cc1	0.7%	0	3%	-14%	-1.0	-4	-3%
O=C(NC1CCCCC1)c1ccc(S(=O)(=O)NCc2cccnc2)cc1	-2.9%	-7	0%	-8%	4.0	-4	-16%
COc1ccc(OC)c(NC(=O)C23CCC(C)(C(=O)O2)C3(C)C)c1 (stereo not drawn)	0.9%	-3	-15%	?	1.6	-5	-28%
COc1cc(C)c(S(=O)(=O)n2ccc(C)n2)cc1C	-1.7%	-7	-12%	2%	4.3	12	-15%
O=C(c1ccc(F)cc1)N(Cc1ccco1)C1CCS(=O)(=O)C1 (stereo not drawn)	-0.7%	0	-13%	7%	2.4	1	-44%[inhibitor]
Cc1ccc(C(C(=O)NC2CCCC2)N(Cc2ccccc2)C(=O)c2csnn2)o1 (stereo not drawn)	·	-1	-5%	2%	-6.1	-5	10%
CCCc1ccc2oc(C(=O)NCCN3CCCC(O)C3)c(C)c2c1 (stereo not drawn)	-3.9%	-17	-13%	-4%	-1.1	-6	6%
CCOC(=O)c1[nH]c(C)c(C(=O)OCC(=O)NCc2ccc(OC)cc2)c1C	-0.5%	-4	-7%	·	·	5	-1%
O=C(O)CSCC(=O)N1CCCCC1	·	-2	-6%	5%	4.0	0	-6%[15.4 µM]
S=C(NC1CC1)SCc1ccco1	-0.7%	4	7%	·	·	·	-23%
Cc1cc(C)nc(NC(=O)C2c3ccccc3Oc3ccccc32)n1	·	-18	2%	17%	-4.3	-4	-8%[15.4 µM]
Cc1cccc(-n2c(O)c(C=Nc3ccc(O)cc3)c3ccccc3c2=O)n1	7.1µM*	-9	0%	7%	3.4	0	-28%
CC(C)C[C@@H](CSc1ccccc1)N1CCN(CC(C)C)CCC1=O	-8.2%&0.3%	-37	-3%	1%	-2.5	1	-14%
CC1CN(C(=O)CCS(=O)(=O)c2ccccc2)CC(C)O1 (stereo not drawn)	·	9	11%	15%	-0.3	-1	-4%
CC(=O)Nc1ccc(C2=NNC(=Nc3cccc(S(=O)(=O)N(C)C)c3)SC2)cc1	-11%	3	-10%	13µM*	-3.1	·	-34%[inhibitor]
